CBX7 inh = inhibitors of human CBX7 binding to H3K27me3 peptide. actives 1.1% (n = 66,000). AlphaScreen His6-CBX7 / biotin-H3K27me3 peptide binding; active compounds read low. O95931. AID 1224903. normalised signal (fraction of DMSO) (concentration not given with the values); in the data active = normalised signal below about 0.5;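 also: 100 nL library stock added to about 20 µL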
Target sequence (O95931 whole entry, looked up): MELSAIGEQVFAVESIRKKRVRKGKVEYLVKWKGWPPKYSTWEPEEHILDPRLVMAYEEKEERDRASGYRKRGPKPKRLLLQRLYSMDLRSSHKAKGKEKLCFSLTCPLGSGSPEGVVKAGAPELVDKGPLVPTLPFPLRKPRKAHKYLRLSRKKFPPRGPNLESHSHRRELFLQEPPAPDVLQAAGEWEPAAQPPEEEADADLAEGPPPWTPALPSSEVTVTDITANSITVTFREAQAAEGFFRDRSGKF
CBX7 inh z-score = second read-out of CBX7 inh, no call of its own (marks repeat the call); z-score; measured here: z-score of CBX7 signal; some inactives read as strong as hits; reference of the scale not given here;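 same signal on another scale; lower means less binding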
* hit, by the source's call. This is a subset, so the mix of outcomes need not match the whole.

SMILES	CBX7 inh	CBX7 inh z-score
CCOC(=O)C1CCCN(c2c(NCCc3ccc(Cl)cc3)c(=O)c2=O)C1 (stereo not given)	0.987	-0.439
CCCN1CCN(CCCNC(=O)CNC(=O)c2cccs2)CC1	1.03	0.217
Cn1cc(/C=C/c2nc3ccccc3c(=O)n2Cc2ccccc2)c2ccccc21	0.846	-7
CCOc1ccc(NC(=O)c2c(NCc3cccnc3)sc3c2CCCC3)cc1	0.558	-6.19
CC(C)(C)c1nc(S(=O)(=O)c2ccccc2)c(N2CCOCC2)o1	1.03	0.897
O=C1CC(c2ccccc2Cl)CC2=C1C(c1cccnc1)Nc1ccccc1N2 (stereo not given)	1.03	0.392
C=CCn1c(CNC(=O)c2cccc(C)c2)nc2ccccc21	1.15	1.47
COc1ccc2c(c1)CCc1c(C(=O)Nc3c(C)nn(Cc4ccc(F)cc4)c3C)noc1-2	1.04	1.03
Cc1ccccc1-c1nc(C(=O)NCc2cccnc2)c(C)o1	1.01	0.114
COc1ccc(C2CC(C(F)(F)F)n3ncc(C(=O)NCCCn4ccnc4)c3N2)cc1 (stereo not given)	0.932	-0.817
CC(C)NC(=O)c1ccc2nc(-c3ccccc3)c(-c3ccccc3)nc2c1	1.07	0.662
COc1ccc2nc(NC(=O)c3ccncc3)sc2c1	1.04	0.898
Cc1cc(N2CCN(C)CC2)nc2ccc(NC(=O)CCC(=O)NCCCN3CCC(C)CC3)cc12	1.09	1.5
O=C(Cc1ccccc1)NCc1nc2ccccc2[nH]1	1.15	1.56
Cc1ccc(-c2noc(COc3ccc(Br)cc3Cl)n2)cc1	1.18	3.18
COCCCNC(=O)CCc1c(C)nc2c(-c3ccc(F)cc3)c(C)nn2c1C	1.03	0.208
COc1ccc(NC(=O)C2(N(Cc3ccco3)C(=O)Cc3nc(N)n[nH]3)CCCCC2)cc1	0.74	-4.72
Cc1ccc2c(c1)-c1c(cnn1CC(=O)Nc1cc(F)ccc1F)CO2	0.958	-0.79
CN(C)C(=O)Cn1nc(-c2ccccc2)c2ccccc2c1=O	1.16	1.96
COc1cccc(-n2c(SCC(=O)Nc3cc(C)on3)nnc2-c2c[nH]c3ccccc23)c1	1.01	0.0872
COCCCNC(=O)c1ccc2c(c1)ncn2-c1ccc(F)cc1F	1.11	2.23
Cc1cccnc1NC(=O)C1CCN(S(=O)(=O)c2c(C)noc2/C=C/c2cccs2)CC1	0.972	-0.0573
CCn1cc(C(=O)NCCNC(C)=O)c(=O)c2ccc(C)nc21	1.07	0.728
O=C(Nc1ccc2oc(-c3cccnc3)nc2c1)c1ccccc1F	1.08	0.106
CCOC(=O)N1CCN(c2c(N3CCN(c4ccc(F)cc4)CC3)c(=O)c2=O)CC1	1.02	0.698
CCn1cc(C(=O)N2CCC(N3CCC(C(N)=O)CC3)CC2)c(=O)c2ccc(C)nc21	1.09	0.998
Cc1noc(C)c1S(=O)(=O)N1CCC(C(=O)N2CCCCCC2)CC1	1.03	1.2
Clc1ccc(OCc2nc3ccccc3n2CCc2ccccc2)cc1	1.02	0.71
O=C(Nc1nnc(-c2ccccc2Cl)s1)c1ccccc1Cl	0.975	-0.63
COC(=O)Cc1nc(Nc2cccc(C(F)(F)F)c2)c2c(C)c(C)sc2n1	1.07	0.0675
CCOc1ccc(-n2nc(C(=O)Nc3ccc(OC)c(Cl)c3)c3ccccc3c2=O)cc1	0.995	-0.15
Cc1nc(N2CCN(c3ccccn3)CC2)c2c(C)c(C)sc2n1	0.951	-1.25
O=C1CCCC2=C1C(c1ccncc1)Nc1ccccc1N2 (stereo not given)	1	0.0723
COc1ccc(NC(=O)CSc2nnc(CNC(=O)c3cccs3)o2)cc1	0.987	-0.59
CCOc1ccc(NC(=O)N(Cc2ccc3c(c2)CCCN3CC)C2CCCC2)cc1	0.512	-7.62
Cc1ccc(Cn2nnc3c(=O)n(Cc4cccc(C)c4)cnc32)cc1	0.918	-1.34
CCN1CCN(Cc2ccc(NC(=O)c3cnn(-c4ccccc4)c3-n3cccc3)cc2)CC1	0.997	-0.118
Cc1ccc(NC(=O)CSCc2cnn(-c3ccccc3)c2-n2cccc2)c(Cl)c1	1.07	3.1
CCOC(=O)N1CCN(c2c(NCCCN3CCN(c4cccc(Cl)c4)CC3)c(=O)c2=O)CC1	1.17	3.06
CN(C)c1ccc(-c2nc3sc4c(c3c(=O)[nH]2)CCCC4)cc1Br	1.11	1.87
Cc1ccccc1NC(=O)CN(C)S(=O)(=O)c1cnc[nH]1	1.19	1.84
CNC(=O)c1ccc(Nc2nnc(-c3ccc(C)c(S(=O)(=O)N4CCOCC4)c3)c3ccccc23)cc1	0.785	-4.05
COc1ccc(N2CCN(C(=O)c3nn(-c4ccccc4OC)c(=O)c4ccccc34)CC2)cc1	0.95	-1.43
Cc1ccc(Nc2cc(C)c3c(O)cccc3n2)cc1F	0.917	-1.64
CCC(C)N(CCNC(=O)c1ccc2nc(N3CCOCC3)sc2c1)C1CCCCC1 (stereo not given)	1.19	1.76
COc1ccc(-c2nc(C#N)c(N3CCCCCC3)o2)cc1	0.932	-0.749
Cc1cc(C(=O)Nc2ccc(F)cc2F)n(-c2ccccc2)n1	0.995	-0.0376
CCCNC(=O)c1ccc2c(c1)N(Cc1ccc(F)cc1)C(=O)c1ccccc1S2=O (stereo not given)	1.07	0.93
O=C(NCc1ccccn1)c1ccc2c(c1)ncn2C1CCCCC1	0.762	-11.2
Cc1ccc(CNC(=O)CN2C(=O)CC(C)(C)Sc3ccccc32)cc1	1	0.0221

Carrying on.
SMILES	CBX7 inh	CBX7 inh z-score
Cc1ccc(Nc2nc(C)cc(C)c2C#N)c(C)c1	1.07	3.04
CCOc1ccc(NC(=O)N(C2CCCCCC2)C2CCN(C(C)=O)CC2)cc1	1.11	1.96
COc1ccccc1C(=O)N(Cc1nc(-c2cccc(C)c2)no1)C(C)C	0.817	-1.82
CCCCN(CCCNC(=O)CCN1C(=O)COc2ccccc21)Cc1ccccc1	1.02	0.515
COc1ccccc1Nc1ncc(C(=O)Nc2ccc(F)cc2Cl)c2ccccc12	1	0.031
Cc1cc(N2CCCCC2)nc2ccc(NC(=O)CCC(=O)NC3CCCC(C)C3C)cc12 (stereo not given)	0.522	-20.9
Cc1cccnc1NC(=O)Nc1ccc2c(c1)N(C)C(=O)CS2	0.924	-1.69
CCCN1Cc2cccc(C(=O)Nc3ccc(C)c(Cl)c3)c2C1=O	1.06	0.774
Cc1ccccc1-n1nc2c(c1NC(=O)c1ccc(Cl)cc1)CSC2	0.941	-1.07
Cc1c(C)n(CC(O)CNc2ccc(Cl)cc2)c2ccccc12 (stereo not given)	0.611	-4.17
CCCCOc1ccc(C(=O)Nc2nnc(C)s2)cc1	1.19	1.85
O=C(Cc1ccc(-n2c(=O)[nH]c3ccsc3c2=O)cc1)NCc1cccnc1	1.01	0.114
N#Cc1c(-c2ccc(F)cc2)c(C#N)c(=O)n(N)c1N	0.16*	-22.4*
Cc1ccc(-c2nnc(N3CCCCC3)c3ccccc23)cc1C	1.01	0.289
CCc1ccc(NC(=O)CSc2nnc(CNC(=O)c3cccs3)o2)cc1	1.01	0.228
O=C([C@H](Cc1ccccc1)N1Cc2ccccc2C1=O)N1CCCCC1	1.17	3.82
CCN(CC)CCNC(=O)Cn1nc(-c2ccc(Cl)cc2)ccc1=O	1.02	0.802
CC(C)OCCCNC(=O)CN1C(=O)CSc2ncccc21	1.01	0.42
Cc1cc(C)cc(N(CC(=O)NC2CCCCC2)S(=O)(=O)c2c(C)noc2C)c1	1.05	0.666
COc1ccc(Cc2noc(Cc3ccc(Cl)cc3)n2)cc1	1.19	6.65
Cc1ccccc1-c1nnc(SCC(=O)N2CC(C)CC(C)C2)o1 (stereo not given)	1.13	2.02
CNc1oc(-c2ccc(Cl)cc2)nc1S(=O)(=O)c1ccccc1	0.995	-0.182
CCOC(=O)c1cnc2c(C)cc(C)cc2c1Nc1ccc(OC)cc1OC	0.916	-1.83
CCOc1ccc(NC(=O)N2CC(C)OC(C)C2)cc1 (stereo not given)	0.999	-0.044
O=C(CC(C(=O)N1CCc2ccccc21)n1ccnc1)NCc1ccccc1 (stereo not given)	0.968	-0.727
CCN(CC)S(=O)(=O)c1ccc2c(c1)N(CC(=O)NCC(C)c1ccccc1)C(=O)CO2 (stereo not given)	0.992	-0.234
O=C(Cc1c(C(=O)O)[nH]c2ccc(Cl)cc12)Nc1ccc(F)cc1	0.959	-0.326
Cc1onc(-c2c(Cl)cccc2Cl)c1C(=O)Nc1ccncc1	1.03	0.582
CCN1CCN(c2cc(C)c3cc(NC(=O)c4ccccc4OC)ccc3n2)CC1	1.11	0.721
Cc1ccc(OCC(=O)N(Cc2nc(-c3cccc(C)c3)no2)C(C)C)cc1	1	0.0257
CC(C)(O)C(O)COc1c2ccoc2cc2oc(=O)ccc12 (stereo not given)	1.1	2.8
Cc1ccc(-c2nc3cnccn3c2Nc2ccccc2)cc1	1.07	0.888
CCCCN(CC)C(=O)Cn1cnc2sc(C)c(S(=O)(=O)N3CC(C)CC(C)C3)c2c1=O (stereo not given)	0.995	-0.154
Cc1ccc(N(CC(=O)NCc2ccccc2)S(=O)(=O)c2c(C)noc2C)cc1	0.938	-0.513
COc1ccc(Nc2c(-c3ccsc3)nc3nc(C)cc(C)n23)cc1	1.03	0.138
Oc1ccccc1-c1n[nH]c(/C=C/c2ccccc2)n1	1.01	0.617
c1ccc(C(c2ccccc2)c2nc(-c3ccncc3)no2)cc1	0.661	-5.87
CCOc1ccc2nc(Nc3nc(C)cc(C(F)(F)F)n3)nc(C)c2c1	1.02	0.687
Cc1ccc(OCC(=O)Nc2ccc(-c3nc4cc(C)cc(C)c4o3)cc2)cc1	0.879	-1.23
COc1ccc(-n2c3c(cc(C(=O)Nc4ccccc4Br)c2=O)C(=O)CC(C)(C)C3)cc1	1.06	0.696

27 neighbouring entries from above, quoted:
SMILES	CBX7 inh	CBX7 inh z-score
CCOC(=O)C1CCCN(c2c(NCCc3ccc(Cl)cc3)c(=O)c2=O)C1 (stereo not given)	0.987	-0.439
CCCN1CCN(CCCNC(=O)CNC(=O)c2cccs2)CC1	1.03	0.217
Cn1cc(/C=C/c2nc3ccccc3c(=O)n2Cc2ccccc2)c2ccccc21	0.846	-7
CCOc1ccc(NC(=O)c2c(NCc3cccnc3)sc3c2CCCC3)cc1	0.558	-6.19
CC(C)(C)c1nc(S(=O)(=O)c2ccccc2)c(N2CCOCC2)o1	1.03	0.897
O=C1CC(c2ccccc2Cl)CC2=C1C(c1cccnc1)Nc1ccccc1N2 (stereo not given)	1.03	0.392
C=CCn1c(CNC(=O)c2cccc(C)c2)nc2ccccc21	1.15	1.47
COc1ccc2c(c1)CCc1c(C(=O)Nc3c(C)nn(Cc4ccc(F)cc4)c3C)noc1-2	1.04	1.03
Cc1ccccc1-c1nc(C(=O)NCc2cccnc2)c(C)o1	1.01	0.114
COc1ccc(C2CC(C(F)(F)F)n3ncc(C(=O)NCCCn4ccnc4)c3N2)cc1 (stereo not given)	0.932	-0.817
CC(C)NC(=O)c1ccc2nc(-c3ccccc3)c(-c3ccccc3)nc2c1	1.07	0.662
COc1ccc2nc(NC(=O)c3ccncc3)sc2c1	1.04	0.898
Cc1cc(N2CCN(C)CC2)nc2ccc(NC(=O)CCC(=O)NCCCN3CCC(C)CC3)cc12	1.09	1.5
O=C(Cc1ccccc1)NCc1nc2ccccc2[nH]1	1.15	1.56
Cc1ccc(-c2noc(COc3ccc(Br)cc3Cl)n2)cc1	1.18	3.18
COCCCNC(=O)CCc1c(C)nc2c(-c3ccc(F)cc3)c(C)nn2c1C	1.03	0.208
COc1ccc(NC(=O)C2(N(Cc3ccco3)C(=O)Cc3nc(N)n[nH]3)CCCCC2)cc1	0.74	-4.72
Cc1ccc2c(c1)-c1c(cnn1CC(=O)Nc1cc(F)ccc1F)CO2	0.958	-0.79
CN(C)C(=O)Cn1nc(-c2ccccc2)c2ccccc2c1=O	1.16	1.96
COc1cccc(-n2c(SCC(=O)Nc3cc(C)on3)nnc2-c2c[nH]c3ccccc23)c1	1.01	0.0872
COCCCNC(=O)c1ccc2c(c1)ncn2-c1ccc(F)cc1F	1.11	2.23
Cc1cccnc1NC(=O)C1CCN(S(=O)(=O)c2c(C)noc2/C=C/c2cccs2)CC1	0.972	-0.0573
CCn1cc(C(=O)NCCNC(C)=O)c(=O)c2ccc(C)nc21	1.07	0.728
O=C(Nc1ccc2oc(-c3cccnc3)nc2c1)c1ccccc1F	1.08	0.106
CCOC(=O)N1CCN(c2c(N3CCN(c4ccc(F)cc4)CC3)c(=O)c2=O)CC1	1.02	0.698
CCn1cc(C(=O)N2CCC(N3CCC(C(N)=O)CC3)CC2)c(=O)c2ccc(C)nc21	1.09	0.998
Cc1noc(C)c1S(=O)(=O)N1CCC(C(=O)N2CCCCCC2)CC1	1.03	1.2

Later entries.
SMILES	CBX7 inh	CBX7 inh z-score
CCn1cc(C(=O)N2CCCCCC2)c2cc(OC)c(OC)cc2c1=O	1.2	1.67
CCN1CCCC1CNC(=O)c1ccc2c(c1)NC(=O)c1ccccc1S2 (stereo not given)	1.24	1.76
CCCCSc1nnc2c(n1)OC1(CCCCC1)Nc1ccccc1-2	1.02	0.239
Cc1ccc(CN2C(=O)c3ccccc3Sc3ccc(C(=O)NCCCN4CCOCC4)cc32)cc1	0.984	-0.156
CCc1ccc(NS(=O)(=O)c2ccc3c(c2)CC(C)N3C(C)=O)cc1 (stereo not given)	0.958	-2.01
CCC(=O)N1CCc2cc(S(=O)(=O)NCCc3ccc(C)cc3)ccc21	0.783	-0.878
